Bioassay records (PubChem)
E coli growth: E. coli growth inhibition; Escherichia coli growth, OD600, 23 h; stronger effect = lower value; OD600 absorbance (test concentration not listed); 330,000 compounds, 0.21% hits; AID 1053175;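 active = OD600 absorbance below the run mean of sample wells minus 3.6 SD, in any replicate, cut at about 0.56 in these data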;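 also: stock transfer was 300 nL into about 60 µL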
Vif A3G: HIV-1 Vif–A3G interaction blockers – biochemical, TR-FRET, GST-Vif 1-94, biotin-A3G peptide, dose response retest, primary screen (AID 1117319); TR-FRET GST-Vif / biotin-A3G peptide binding; higher % means a stronger effect; test concentration not given here; strong numbers were not always called active; 260,000 compounds, 0.57% hits; inhibition, %, or IC50 in µM where a hit was titrated;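 active = above the screen mean plus three standard deviations and confirmed in dose response; inconclusive = results disagree or hit not tested in dose response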;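 also: Vif residues 1-94 fused to GST binding biotinylated APOBEC3G peptide 110-148; 0% = full assay without inhibitor and 100% = GST in place of GST-Vif; retest series ran down from 100 µM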
LANA-H2B inh: blocks KSHV LANA binding to histone H2A/H2B. Q9QR71. cell-free LANA-H2A/H2B peptide, fluorescence polarization. inhibition, % (test concentration not listed). 320,000 compounds, 0.6% hits; in the data active = inhibition mostly above about 10%, no sharp cut-off; inactive = mostly below about 6.7%;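 also: stock transfer was 7.5 nL into about 10 µL; 0% = median of vehicle wells and 100% = median of positive control wells; one replicate is shown; the record names a cut of 25% in any replicate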
Bfl-1 A1 inh: inhibitors of the anti-apoptotic protein A1, read as caspase activation. MEF A1-2A-BIM cells, Caspase-Glo 3/7 luminescence, 3 h; percent of clofoctol response, vehicle zero. caspase activation, % (concentration not given with the values). 330,000 compounds, 0.066% hits. AID 2462;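 active = over half of replicate activation scores above 10%, or exactly half above 10 with the replicate mean above 10; inconclusive = replicate mean below 10 yet half the replicates above 10; inactive = over half of replicates below 10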;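 also: wells of about 30 µL received 50 nL stock; many hits fall short of the cut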
HNF4A DNA FP: change in binding of human HNF4 alpha to DNA. P41235. 360,000 compounds, 0.3% hits. HNF4a-FITC DNA binding, fluorescence polarization, 1 h. activity change, % at 10 µM; in the data active = activity change above about 30%, passing the limit was not always enough;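 also: controls were the assay level and a saturating level of protein; the project sought stronger binding though the title names inhibitors; some compounds called inactive have numbers as strong as hits; positive values seem to mean higher polarization but the record does not say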
Target sequence (P41235 whole entry, looked up): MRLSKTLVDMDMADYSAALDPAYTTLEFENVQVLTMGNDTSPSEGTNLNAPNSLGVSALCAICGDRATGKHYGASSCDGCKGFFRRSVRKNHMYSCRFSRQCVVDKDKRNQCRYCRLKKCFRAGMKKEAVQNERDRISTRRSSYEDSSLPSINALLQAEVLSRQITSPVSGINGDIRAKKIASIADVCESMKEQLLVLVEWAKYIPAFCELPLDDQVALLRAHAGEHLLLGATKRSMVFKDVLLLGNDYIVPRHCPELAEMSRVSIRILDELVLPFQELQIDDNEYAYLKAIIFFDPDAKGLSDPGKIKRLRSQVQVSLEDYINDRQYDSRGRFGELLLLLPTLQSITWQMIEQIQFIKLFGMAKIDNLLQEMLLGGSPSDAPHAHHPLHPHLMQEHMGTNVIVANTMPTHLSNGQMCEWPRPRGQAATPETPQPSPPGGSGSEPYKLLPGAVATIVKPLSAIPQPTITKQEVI
UCH37 inh: human UCH37 deubiquitinating enzyme inhibition. Q9Y5K5. purified proteasome/UCH37, Ub-AMC cleavage fluorescence. inhibition, % (no concentration beside the values). 330,000 compounds, 0.33% hits. AID 588478;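 active = mean of two replicates above 20%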;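 also: 0% = compound-free wells with enzyme and 100% = wells lacking proteasome; stock transfer was 100 nL into about 20 µL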
Target sequence (Q9Y5K5 whole entry, looked up): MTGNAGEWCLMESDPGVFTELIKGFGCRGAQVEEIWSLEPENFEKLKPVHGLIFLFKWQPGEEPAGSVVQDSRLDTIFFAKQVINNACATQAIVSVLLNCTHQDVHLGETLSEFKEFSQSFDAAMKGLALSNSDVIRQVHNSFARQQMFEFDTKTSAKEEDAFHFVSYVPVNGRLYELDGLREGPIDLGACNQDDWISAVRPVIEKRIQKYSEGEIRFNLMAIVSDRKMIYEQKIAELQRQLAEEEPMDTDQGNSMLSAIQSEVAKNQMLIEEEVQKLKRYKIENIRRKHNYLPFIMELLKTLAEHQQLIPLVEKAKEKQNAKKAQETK
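Schedule: 30 min plus 25 min, room temperature / Material: human UCH37 within purified proteasomes / Technique: AMC fluorescence intensity at 355/460 nm / Buffer or medium: pH 7.4 Tris-HCl (50 mM) with ovalbumin, ATP-MgCl2, DTT / Controls: wells without proteasome as full block, compound-free enzyme plus substrate as uninhibited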
B2AR ag: human beta-2 adrenergic receptor agonism by FAP | response, % (concentration not given with the values) | AID 504454 | 340,000 compounds, 0.43% hits | Am2.2-beta2AR cells, FAP receptor internalization, flow cytometry; reference of the scale not given here | P07550;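 active = response above a set limit, near 3 SD of response in nonfluorescent compounds, cut at about 42% in these data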;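 also: stock transfer was 100 nL into about 11 µL; a reference agonist was the positive control; negative values mostly stem from fluorescent compounds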
Starred values were filed as active, the others as inactive; i = inactive; ? = inconclusive; nt = no result given; & = joins results of further samples.

SMILES | E coli growth | Vif A3G | LANA-H2B inh | Bfl-1 A1 inh | HNF4A DNA FP | UCH37 inh | B2AR ag
Cc1nc2ccccc2c(=O)n1-c1ccc(NS(=O)(=O)c2ccccc2)cc1 | 0.68 | 2% | -1.0 | -0.9 | -0.7 | 0.9 | -1
CCOC(=O)c1c(C)[nH]c(C)c1C(=O)Cn1nnc(-c2ccccc2C)n1 | 0.65 | -8%&3% | 3.3 | 1.0 | -1.7 | 0.8 | 3
Cc1ccc(S(=O)(=O)N(C)C)cc1NC(=O)COC(=O)CSc1ccccc1 | 0.68 | 5% | -4.1 | -0.3 | 3.6 | 2.4 | -4
COc1ccc(NC(=O)CSCC(=O)Nc2ccc(C)c(S(=O)(=O)N3CCCCCC3)c2)cc1 | 0.71 | 13% | -3.6 | 0.4 | 3.8 | 3.7 | 5
CN1CCN(c2cc(N3CCc4ccccc4C3)c(F)cc2[N+](=O)[O-])CC1 | 0.62 | -2% | -0.2 | 0.8 | -3.5 | 8.4 | 22
Cc1ccc(-c2cc(C(F)(F)F)c(C#N)c(SCC(=O)O)n2)cc1 | nt | nt | -2.1 | 0.0 | 1.7 | nt | 11
CC(C)C[C@H](N)c1cn([C@@H](CCCCN)C(=O)N2CCNCC2)nn1 | nt | 6% | 0.8 | 0.7 | 1.5 | -0.2 | 2
CCOCCCN(C(=O)c1snc(C(N)=O)c1N)C(C(=O)NC1CCCC1)c1ccc(OC)cc1 (stereo not given) | 0.65 | 1% | -3.0 | 0.1 | 0.1 | -38 | -7
CCOC(=O)C1=C(CN2CCCCC2)NC(=O)NC1c1cc(C)ccc1C (stereo not given) | 0.68 | 6% | -1.3 | 0.3 | 3.0 | 0.0 | -7
O=C(CCN1C(=O)/C(=C\c2cccc(Br)c2)SC1=S)N1CCOCC1 | 0.71 | -5% | -3.2 | 0.9 | -0.7 | 5.7 | -1
CCc1noc(C)c1C(=O)Nc1cc(Cl)ccc1N1CCCC1 | 0.72 | -2% | -1.1 | -0.4 | -3.4 | 4.3 | -1
O=C1N/C(=C/c2ccc(N3CCOCC3)o2)C(=O)N1c1cccc(Cl)c1 | 0.66 | 9% | 8.7 | ? | 127 | 3.7 | 18
CCOc1ccc(C(=O)O/N=C(\N)c2ccccn2)cc1 | 0.69 | nt | 1.1 | 1.0 | -0.6 | -1.9 | 5
Cc1nn2c(N3CCCC3)cc(C(C)C)nc2c1-c1ccccc1 | 0.73 | 9% | 0.4 | 0.4 | -3.6 | -63 | 2
COc1ccc(NC(=O)Nc2ccccc2)cc1S(=O)(=O)N1CCCCC1 | 0.68 | 5% | 1.0 | 0.4 | -1.7 | 4.0 | -2
CCc1nc2cccnc2n1-c1ccc(CC(=O)NCCOC)cc1 | 0.67 | -6% | -0.6 | 0.4 | 0.1 | -13 | -8
COc1ccc(C2(C(=O)NCc3ccccc3Cl)CCOCC2)cc1OC | 0.7 | nt | 2.1 | 0.8 | 2.0 | -0.7 | 2
Cc1noc(C)c1COC(=O)c1cccnc1SCC(=O)Nc1ccc2c(c1)OCO2 | 0.69 | 16%&-3% | -2.4 | 1.1 | -0.9 | 4.2 | -12
CCOc1ccccc1N1CCN(Cc2cn[nH]c2-c2ccc(F)cc2)CC1 | 0.66 | ? | 6.1 | 0.4 | -2.0 | 0.9 | 0
CC1=C(C(=O)N(C)CCC#N)C2(CCCCC2)OC1=O | 0.76 | 3% | -3.8 | 0.8 | -3.5 | 6.3 | -8
O=C(N/N=C/c1cccc([N+](=O)[O-])c1)C1CC(=O)N(c2ccc(F)cc2)C1 (stereo not given) | nt | 13% | -2.1 | 0.5 | -3.1 | nt | -5
COc1cc(CCC(N)c2cccc(O)c2)cc(OC)c1OC (stereo not given) | 0.7 | -3% | nt | nt | -0.7 | -0.5 | -2
COc1ccccc1CN1CCN(C(=O)c2ccncc2)CC1 | 0.62 | ? | -5.2 | 0.2 | 3.9 | 0.4 | 5
COc1ccc(/C=C(/NC(=O)c2ccccc2)C(=O)N/N=C/c2sccc2C)cc1 | nt | nt | -2.8 | 0.2 | -3.6 | nt | -2

Continued; it opens with the 2 that closed the last part.
SMILES | E coli growth | Vif A3G | LANA-H2B inh | Bfl-1 A1 inh | HNF4A DNA FP | UCH37 inh | B2AR ag
COc1ccccc1CN1CCN(C(=O)c2ccncc2)CC1 | 0.62 | ? | -5.2 | 0.2 | 3.9 | 0.4 | 5
COc1ccc(/C=C(/NC(=O)c2ccccc2)C(=O)N/N=C/c2sccc2C)cc1 | nt | nt | -2.8 | 0.2 | -3.6 | nt | -2
CCOC(=O)c1c(C)[nH]c(C(=O)COC(=O)c2cc(C)oc2C)c1C | 0.7 | 5% | -0.6 | -0.3 | 3.3 | 1.2 | 0
CCOC(=O)Nc1csnn1 | 0.64 | -12% | nt | nt | -3.8 | -0.9 | -8
Cn1c(SCC(=O)c2ccc(F)cc2)nnc1-c1ccccc1N | 0.68 | 6% | 5.0 | -0.8 | 1.8 | 1.5 | -9
COCC(C)NS(=O)(=O)c1ccc(C(=O)NCCCn2ccc3ccccc32)cc1 (stereo not given) | nt | -3% | 1.5 | 0.0 | 3.0 | nt | 1
Cc1cc(OCCCCCNCCO)cc(C)c1Cl | 0.64 | 23% | -2.8 | 0.2 | 4.0 | 5.9 | 15
CCOC(=O)C1(CCCc2ccccc2)CCN(C(=O)[C@@H]2C[C@@H](C)NC(=S)N2)CC1 | 0.65 | nt | -3.3 | -0.2 | 6.0 | 3.0 | -6
Cc1cc2c(NC(=O)Nc3ccc(F)cc3)cccc2nn1 | 0.7 | nt | -2.8 | -0.5 | -0.2 | 3.5 | -21
N/C(=N\OC(=O)c1ccc(Br)o1)c1ccccn1 | 0.72 | -2% | -10 | -6.8 | 0.3 | 1.6 | -3
C/C(=N\NC(=O)c1ccc(OC2OCCOC2Oc2ccc(C(=O)N/N=C(\C)c3ccncc3)cc2)cc1)c1ccncc1 (stereo not given) | nt | -7% | 1.2 | 0.6 | 157* | nt | 4
Cc1cccc(C(=O)NNC(=O)Nc2ccccc2)c1 | 0.73 | 13% | 3.9 | 0.4 | 1.9 | -0.4 | -2
COc1ccc(CCN(C)C2CCCN(C(=O)Cn3cccn3)C2)cc1OC (stereo not given) | 0.64 | -1% | -1.4 | 0.1 | -2.9 | 0.2 | 5
Cc1cccc(C(=O)Nc2ccccc2N2CCN(c3ccc(F)cc3)CC2)c1 | 0.74 | 8% | -2.5 | -0.6 | 9.2 | 5.6 | 4

2 entries from above, with values under each structure:
The line under a structure holds: E coli growth | Vif A3G | LANA-H2B inh | Bfl-1 A1 inh | HNF4A DNA FP | UCH37 inh | B2AR ag
- Cn1c(SCC(=O)c2ccc(F)cc2)nnc1-c1ccccc1N
  0.68 | 6% | 5.0 | -0.8 | 1.8 | 1.5 | -9
- COCC(C)NS(=O)(=O)c1ccc(C(=O)NCCCn2ccc3ccccc32)cc1 (stereo not given)
  nt | -3% | 1.5 | 0.0 | 3.0 | nt | 1

(next part)
SMILES | E coli growth | Vif A3G | LANA-H2B inh | Bfl-1 A1 inh | HNF4A DNA FP | UCH37 inh | B2AR ag
COCCn1cc(C(=O)NCc2cccs2)c2c3ccccc3n(C)c2c1=O | 0.68 | 72% | 0.4 | 1.0 | -2.4 | -32 | -1
CC1CCCC(NC(=O)COC(=O)/C=C/c2ccc(F)cc2)C1C (stereo not given) | 0.72 | nt | 2.6 | 0.1 | 6.0 | 3.7 | -5
O=C(Cc1c(F)cccc1Cl)Nc1cc(S(=O)(=O)N2CCOCC2)ccc1N1CCCC1 | 0.71 | nt | -1.8 | -0.9 | 3.4 | 4.5 | -1
N#Cc1ccncc1Sc1ccc(Cl)cc1 | 0.7 | 2% | 8.7 | -0.2 | 5.2 | 2.1 | -2
COc1cc(NC(=O)CCc2c(C)nn(-c3ccc(N4CCOCC4)nn3)c2C)cc(OC)c1OC | 0.69 | -1% | 4.1 | -3.0 | 6.4 | 0.4 | 6
COc1ccc(N2CC(O)=C(c3nc(-c4ccc(Cl)cc4)cs3)C2=N)cc1 | 0.66 | 10% | -4.5 | 0.1 | 6.3 | -7.7 | 1
Cc1nc(Nc2ccccc2C)c2cnn(C)c2n1 | 0.7 | -5% | nt | nt | -5.2 | 4.1 | -1
CCC(NCc1cccnc1)c1ccc(OC)c(OC)c1 (stereo not given) | 0.6 | nt | nt | nt | -0.2 | 0.0 | 1
C#CCSc1[nH]c(=O)cc(C)c1C#N | 0.66 | -9% | -2.4 | -0.5 | 0.2 | 2.5 | 3
CCOP(=O)(OCC)c1nc(-c2cccc3ccccc23)oc1NCc1ccccc1 | 0.73 | 0% | -2.8 | -0.3 | -3.6 | i | 18
CCC(C)NC(=O)c1ccccc1-c1ccccc1C(=O)NC(C)CC (stereo not given) | 0.73 | 1% | 0.2 | -0.3 | 2.9 | 5.0 | -4
O=C(CCN=C1NS(=O)(=O)c2ccccc21)N1CCc2ccccc2C1 | 0.67 | 1% | -3.2 | -0.3 | 3.8 | -1.3 | -1
Cc1ccc(S(=O)(=O)Nc2ccc3c(c2)OCCO3)cc1 | 0.7 | 6% | nt | -1.1 | -0.6 | 1.1 | 17
CCCCc1nc2cc(C(=O)NCCc3cnn(C)c3)ccc2o1 | 0.64 | 4% | 3.1 | 1.2 | -2.0 | 4.2 | -1
Cc1ccccc1Nc1nc(N)nc(CN2C(=O)NC3(CCCCC3C)C2=O)n1 (stereo not given) | 0.68 | 2% | 1.5 | 0.1 | 4.5 | 1.4 | -10
O=C(NNC(=S)NC1CCCCC1)c1sc2ccccc2c1Cl | 0.69 | nt | -3.9 | -0.7 | 4.1 | -2.8 | 7
Cc1cc(C)cc(CC(CC(=O)Nc2ccc(Cl)cc2)C(=O)O)c1 (stereo not given) | 0.67 | -2% | -1.5 | 0.4 | -2.1 | 1.3 | 3
CCC(C)C(Nc1ncnc2scc(-c3ccccc3)c12)C(=O)O (stereo not given) | 0.67 | 3% | 5.8 | -0.3 | 1.0 | 0.9 | 8
CCNC(=S)NNC(=O)c1cc(-c2cccc(OC)c2)nc2ccccc12 | 0.7 | nt | 1.6 | 0.8 | 3.5 | 2.5 | 2
CC1(C)CC(NC(=S)NCc2ccco2)CC(C)(C)N1 | 0.72 | -3% | 0.7 | 0.6 | -0.9 | 1.9 | -6
O=[N+]([O-])c1ccc(N2CCN(Cc3ccc4c(c3)OCO4)CC2)nc1 | 0.66 | 6% | -1.2 | 0.1 | -1.2 | 8.2 | -7
CNCCCCOc1ccccc1-c1ccccc1 | 0.64 | 1% | -1.6 | 0.2 | 0.9 | 2.5 | 17
Cc1ccc(NS(=O)(=O)c2ccc(NC(=O)c3ccc(Br)o3)cc2)c(C)c1 | 0.71 | -3% | 14 | -0.2 | -0.4 | 1.7 | 0
O=C(O)CSc1ncnc2scc(-c3ccc(Br)cc3)c12 | 0.68 | -7% | -0.7 | 0.7 | 2.2 | 0.8 | -4
COC(=O)c1ccc(C(=S)N2CCOCC2)cc1 | 0.75 | 1% | -6.6 | -0.5 | 0.9 | -5.4 | -2
COc1ccccc1NC(=O)Cc1noc(CSc2cc(C)c3ccccc3n2)n1 | 0.75 | -6% | 0.6 | -0.1 | 0.0 | 8.1 | -25
CC(Oc1ccc(Br)cc1)C(=O)Nc1cc(S(=O)(=O)N2CCOCC2)ccc1N1CCCC1 (stereo not given) | 0.7 | 0% | nt | 1.9 | 0.3 | 5.9 | -1
O=C(Nc1cccc(O)c1)c1ccc(NC(=O)C2CCCO2)cc1 (stereo not given) | 0.59 | nt | -4.6 | -6.3 | -1.1 | 0.8 | -7
